High-throughput results (PubChem)
miR-21 reporter: miR-21 reporter, rising signal | HeLa miR-21 FLuc reporter, luciferase, 48 h | Potency, µM (titrated, usually from 38.3 µM), for inactives: at the highest dose reporter change, positive = more light | 340,000 tested, under 10 active; active = well fitted rising curve with a large enough effect; inconclusive = small, poorly fitted or top-dose-only effect; inactive = no such curve, though single readings can be large or run the other way;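 also: % of control where 0% means no effect; miR-21 action dims this reporter so a rising signal means less miR-21 action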
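HeLa cells stably expressing CMV-driven firefly luciferase with a downstream miR-21 binding sequence, endogenously expressing miR-21, were treated with titrations (up to about 40uM final) for 48 hours at 37 degree Celsius. Luciferase luminescence was read after lysis.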
The depositor's hits bear a star; ? = inconclusive. These rows are one share of the data. The share of hits here may be higher or lower than overall.

SMILES | miR-21 reporter
CC(=O)c1cc(-c2ccc(F)cc2)n(CC(=O)NCc2ccc(C)cc2)c1C | 8.7%
CCOC(=O)c1ccc(NC(=O)CCn2c(=O)c3cccn3c3ccccc32)cc1 | -7.0%
COc1ccc(NC(=O)Cn2c(=O)n(Cc3ccco3)c(=O)c3sc4ccccc4c32)c(OC)c1 | 0.5%
CCOC(=O)c1cccc(NC(=O)N2CC(CC)Oc3ccccc32)c1 (stereo not given) | 0.2%
Cc1ccc(CNC(=O)CCCCCn2c(=O)[nH]c3ccccc3c2=O)cc1 | -4.1%
CCc1cccc(-n2nnc(-c3nc(-c4ccccc4Cl)no3)c2N)c1 | -22.0%
Cc1ccccc1OCCn1cc(C(=O)c2ccco2)c2ccccc21 | 14.7%
COc1ccc(Br)cc1CNC(=O)c1ccc2c(c1)N(Cc1ccc(C)cc1)CCS2 | -1.1%
CCOc1ccc(CCNC(=O)c2nc(-c3cccc(F)c3)n3c2CCCCC3)cc1OCC | -1.5%
CCCNC(=O)c1cnn2c(C(F)F)cc(-c3ccccc3)nc12 | -0.1%
COc1ccc(N2CCN(C(=O)CCc3c(C)nc4cc(-c5ccc(OC)cc5OC)nn4c3C)CC2)cc1 | 6.3%
CCOc1cc(C2CC(=O)Nc3c2c(=O)nc(SCc2cccc(Cl)c2)n3C)ccc1O (stereo not given) | 3.9%
COc1ccc(Nc2nc3c(S(=O)(=O)c4ccc(Br)cc4)nnn3c3ccsc23)c(OC)c1 | -1.0%
CCc1ccc(S(=O)(=O)Nc2ccc3oc(C)c(C(=O)OCCOC)c3c2)cc1 | -4.6%
CCOC(=O)c1ccc(CN(Cc2ccccc2C)S(=O)(=O)c2ccc(C(C)(C)C)cc2)cc1 | -1.9%
CCN1C(=O)c2ccccc2Sc2ccc(NC(=O)Cc3ccc(OC)cc3)cc21 | 22.2%
Cc1ccc(NC(=O)CSc2nc3ccccc3nc2Cc2ccccc2)c(C)c1 | 13.2%
CN(C)C1=NC(=O)/C(=C/c2ccc(-c3ccc(S(N)(=O)=O)cc3)o2)S1 | 3.6%
Cc1ccc(CNC(=O)c2ccc3c(c2)c(C)c(C)n3Cc2ccccc2)o1 | -38.8%
CC(NCc1ccc2c(c1)n(C)c(=O)n2C)c1ccccc1 (stereo not given) | 4.5%
CC(=O)c1cccc(NS(=O)(=O)c2ccc3[nH]c4c(c3c2)CCCCCC4)c1 | 9.1%
Cc1ccccc1C(=O)Nc1cccc(C(=O)OCc2cc(=O)n3nc(C4CC4)sc3n2)c1 | -15.0%
O=C(Cc1ccc(Cl)cc1)NCC(c1cccs1)S(=O)(=O)c1ccccc1 (stereo not given) | 3.4%
COc1ccc(Cn2c(C(=O)O)c(CNC3CCCC3)c3ccc(C)cc32)cc1 | 2.3%
COc1ccc(NC(=O)CSC2=Nc3ccccc3C3=NC(Cc4ccccc4)C(=O)N23)cc1 (stereo not given) | -9.7%
COc1ccc(C(=O)NCC(c2cccnc2)N2CCN(c3ccccc3F)CC2)cc1OC (stereo not given) | 1.1%
CCn1ccc2cc(S(=O)(=O)N3CCCN(C(=O)Nc4cccc(SC)c4)CC3)ccc21 | 1.0%
Cc1ccc(C)c(Nc2cc(C(=O)NC3CCCCC3)c3ccccc3n2)c1 | 0.2%
Cc1ccc(NC(=O)Nc2cn(C)c(=O)c3ccccc23)c(Cl)c1 | -13.2%
Cc1ccc(C(=O)Nc2cc3c(cc2N2CCCC2)n(C)c(=O)c(=O)n3C)cc1 | -7.4%
COc1cc(NS(=O)(=O)c2cnc(N)nc2)cc(OC)c1 | -1.5%
Cc1ccccc1N(Cc1cc(=O)[nH]c2ccccc12)C(=O)CCl | ?
Cc1nnc(N2CCCC(C(=O)Nc3cccc(C(F)(F)F)c3)C2)c2nn(-c3ccccc3)c(C)c12 (stereo not given) | 19.3%
COc1ccc(-c2nc3scc(CCNS(=O)(=O)c4ccc5c(c4)OCCO5)n3n2)cc1OC | -9.8%
COc1ccc(-c2nc3sc(CCNC(=O)C(=O)Nc4ccc(OC)c(OC)c4)c(C)n3n2)cc1 | 2.5%
CCS(=O)(=O)N1CCc2cc(C(=O)NC(C)c3ccccc3)ccc21 (stereo not given) | 18.3%
CCOc1ccccc1NC(=O)C1CCN(S(=O)(=O)c2ccc3[nH]c(=O)oc3c2)CC1 | 4.1%
CCc1c(C)c2cc3c(c(C)c2oc1=O)OCN(CCc1ccc(OC)c(OC)c1)C3 | -0.1%
COCCCNS(=O)(=O)c1cc(-c2onc(C)c2C)ccc1OC | -8.8%
Cc1cccc(C(=O)Nc2sc3c(c2C(=O)NC(C)C)CCCC3)c1 | 4.2%
Cc1ccc(Nc2cc(C)nc(-n3nc(C)cc3C)n2)cc1 | -8.0%
Cc1cc(NC(=O)c2ccc3c(c2)N(Cc2cccc(Cl)c2)C(=O)c2ccccc2S3=O)ccc1Br (stereo not given) | 8.4%
CCCCSCCCNC(=O)c1cn(C)c2ccc(S(=O)(=O)N3CCCCCC3)cc2c1=O | -1.0%
COc1ccc(-c2nc(SCCOc3cc(C)ccc3C(C)C)n3[nH]c(=O)cc3n2)cc1 | -21.3%
CCc1nn2c(-c3ccccc3OC)ccnc2c1-c1ccccc1 | 0.6%
CCC(C)NC(=O)c1cnn(-c2cccc(F)c2)c1-n1cccc1 (stereo not given) | -4.3%
Cc1cnc(=O)[nH]c1SCC(=O)Nc1cc(C(F)(F)F)ccc1Cl | 3.1%
COc1cc2c(=O)n(Cc3ccccc3)c(=O)n(CC(=O)Nc3cc(C(F)(F)F)ccc3Cl)c2cc1OC | 0.3%
Nc1c(C(=O)Nc2ccc(OC(F)(F)F)cc2)nnn1Cc1ccccc1 | -4.5%
Cc1ccc(C(=O)Nc2ccc(-n3c(C)nc4ccccc4c3=O)cc2)cc1[N+](=O)[O-] | -5.1%
CCOc1ccccc1NC(=O)CSc1nccn1-c1cccc(C)c1 | -4.0%
O=C(Nc1cccc(C(=O)OCc2cc(=O)n3nc(C4CC4)sc3n2)c1)c1cccc(Cl)c1 | -12.2%
Cc1cc(C)c(NC(=O)Cn2c(=O)n(Cc3ccc(C(=O)NCc4ccco4)cc3)c(=O)c3sccc32)c(C)c1 | -8.1%
O=C(CCCn1c(=O)c2ccccc2n(Cc2cccc(F)c2)c1=O)NCc1ccccc1Cl | -0.6%
O=C(NCc1ccco1)c1ccc(Cn2c(SCc3ccccc3F)nc3cccnc32)cc1 | -10.6%
Cc1ccc(-n2cnc3cc(C(=O)NC4CCCCCC4)ccc32)c(C)c1 | -2.7%
CO/N=C(/C(=O)N[C@@H]1C(=O)N2C(C(=O)O)=CCS[C@H]12)c1cnc(N)s1 | -2.7%
COc1ccc(-c2nc(-c3cc4cc(Br)ccc4oc3=O)cs2)cc1 | -3.6%
CCOC(=O)C1=C(CN2CCN(CC)CC2)NC(=O)NC1c1ccc(Cl)cc1 (stereo not given) | -1.5%
Cc1cccc(CNC(=O)c2cnc3sc(N4CCOCC4)nn3c2=O)c1 | -0.7%

(list continues)
SMILES | miR-21 reporter
Cc1c(C(=O)Nc2ccc(F)c(C(F)(F)F)c2)sc2nc(-c3ccccc3)cn12 | 28.1%
Nc1nonc1-c1nc2ccccc2n1CC(=O)Nc1ccccc1C(=O)O | 20.0%
Cc1ccc(Cn2c(CNC(=O)c3ccc(Cl)c([N+](=O)[O-])c3)nc3cccnc32)cc1 | -0.4%
COc1ccc2cc(CNc3ccc(C)cc3)c(=O)n(CC(=O)Nc3cccc(C(F)(F)F)c3)c2c1 | -3.0%
Cc1ccc(CNc2ccc(-c3nc(-c4ccco4)no3)cc2[N+](=O)[O-])cc1 | 2.8%
COCCc1nn2c(=O)cc(COC(=O)c3ccc4c(c3)OCO4)nc2s1 | -12.6%
Cn1c(=O)c2c(-c3ccccc3Cl)n(Cc3ccc(Cl)cc3)cc2n(C)c1=O | -2.6%
COc1cccc(-c2nc3c(c(SCC(=O)Nc4cccc(C)c4C)n2)Cc2c(CO)cnc(C)c2O3)c1 | 1.3%
COC(=O)c1cc2oc3ccccc3c2n1Cc1ccc(C)cc1 | -1.5%
CCCN(Cc1cc2cc(C)ccc2[nH]c1=O)C(=O)c1cccc(Cl)c1 | -2.4%
Cc1ccc(-n2ncc3c(N4CCC(Cc5ccccc5)CC4)ncnc32)cc1C | -0.3%
Cc1ccc2c(CC(=O)Nc3ccc(S(=O)(=O)N4CCCCC4)cc3)coc2c1 | -5.6%
CC(C)(C)OC(=O)N1CCC(c2c(C(=O)NCCc3ccsc3)cnn2-c2ccc(F)cc2F)CC1 | 11.4%
CCCc1cnc2c(c1SCC(=O)Nc1ccc([N+](=O)[O-])cc1)c(=O)n(C)c(=O)n2C | -2.8%
CCc1nnc(NC(=O)c2nc(SCc3ccc(F)cc3)ncc2Cl)s1 | -2.6%
COc1ccc(N(C(=O)c2ccc(C)cc2)S(=O)(=O)c2ccc(Cl)cc2)cc1 | 12.8%
Cc1ccc(-c2cnc(C3CC3)o2)cc1S(=O)(=O)Nc1cccc(C)c1C | 10.1%
Cc1ccccc1CSc1nc2cc(C(=O)NC3CCCC3)ccc2c(=O)n1Cc1ccccc1 | -2.5%
Cc1cccc(Cn2c(=O)n(CCc3ccccc3)c(=O)c3c(C)c(C)sc32)c1 | -2.0%
COc1ccc(NC(=O)CN(C)S(=O)(=O)c2ccc3c(c2)CCCN3C(C)=O)cc1Cl | 11.4%

Individual results from the list:
Cc1ccc2c(CC(=O)Nc3ccc(S(=O)(=O)N4CCCCC4)cc3)coc2c1 | miR-21 reporter = -5.6%
COc1cccc(-c2nc3c(c(SCC(=O)Nc4cccc(C)c4C)n2)Cc2c(CO)cnc(C)c2O3)c1 | miR-21 reporter = 1.3%

Other structures follow.
smiles,miR-21 reporter
CCc1ccc(Sc2cc(C(=O)NCCCN3CCC(C)CC3)c3ccccc3n2)cc1,19.2%
CCOc1ccc(C2C(=O)N(C3CCCCC3)CC(=O)N2Cc2ccc(F)cc2)cc1OC (stereo not given),-5.5%
Cc1ccc(N(CC(=O)Nc2ccc(Br)c(C)c2)S(=O)(=O)c2cccs2)cc1,0.4%
COc1ccc(S(=O)(=O)NCC(c2ccco2)S(=O)(=O)c2ccc(C)cc2)cc1F (stereo not given),10.3%
Cc1ccc(C(=O)NCC(c2cccs2)S(=O)(=O)c2cccs2)cc1C (stereo not given),2.6%
O=C(Nc1ccccc1C(F)(F)F)c1cc(-c2ccc3c(c2)OCCO3)on1,-45.8%
COc1ccc(NC(=O)CC(C)S(=O)(=O)c2cc3c(cc2C)NC(=O)CO3)cc1OC (stereo not given),3.2%
COc1cc2c(C(=O)N(C)c3cc(Cl)ccc3OC)cn(CC(C)C)c(=O)c2cc1OC,10.4%
COCc1cc(C)nc2sc3c(c12)NC(c1ccc(O)cc1)N(c1ccc(C)cc1)C3=O (stereo not given),0.0%
CC(C)(C)c1ccc(OCC(=O)N2CCC(c3nc4ccccc4s3)CC2)cc1,-2.4%

Part of the list above, reformatted.
SMILES: COc1ccc(NC(=O)CC(C)S(=O)(=O)c2cc3c(cc2C)NC(=O)CO3)cc1OC (stereo not given)
- miR-21 reporter = 3.2%

SMILES: COc1cc2c(C(=O)N(C)c3cc(Cl)ccc3OC)cn(CC(C)C)c(=O)c2cc1OC
- miR-21 reporter = 10.4%

SMILES: COCc1cc(C)nc2sc3c(c12)NC(c1ccc(O)cc1)N(c1ccc(C)cc1)C3=O (stereo not given)
- miR-21 reporter = 0.0%

SMILES: CC(C)(C)c1ccc(OCC(=O)N2CCC(c3nc4ccccc4s3)CC2)cc1
- miR-21 reporter = -2.4%

(more compounds)
smiles,miR-21 reporter
Cc1sc2c(c1C)c(=O)n(Cc1ccccc1)c(=O)n2Cc1ccc(F)cc1,-0.2%
Cc1ccc(NC(=O)Cn2nnc(-c3nc(-c4ccncc4)no3)c2N)c(C)c1,-4.1%
CCOC(=O)c1cc(C)n(CC2CCC(C(=O)Nc3ccc(C(C)=O)cc3)CC2)c1C (stereo not given),7.3%
COC(=O)c1cc2sccc2n1Cc1nc(-c2cccc(Br)c2)oc1C,-3.1%
COc1ccc(-n2ccn3c(CC(C)(C)CC(=O)O)nnc3c2=O)cc1,1.5%
O=C(CCS(=O)(=O)c1cc2c(cc1Cl)NC(=O)CO2)NCCc1ccc(Cl)cc1,?
CCS(=O)(=O)c1ccccc1C(=O)N1CCN(c2nc3ccccc3s2)CC1,29.6%
CC1=C(C(=O)Nc2ccccc2)C(c2ccccc2Cl)n2ncc(C(=O)Nc3cccc(C)c3)c2N1 (stereo not given),14.4%
CCc1ccc(N2C(=O)CS(=O)(=O)C23C(=O)N(Cc2ccccc2F)c2ccccc23)cc1 (stereo not given),-6.0%
CCOC(=O)c1cc2c(=O)n3ccccc3nc2n(CC2CCCO2)c1=NC(=O)c1ccc(C)cc1 (stereo not given),2.1%
Cc1ccc(CNC(=O)c2c(O)nc3ccccn3c2=O)cc1,-5.4%
CCCNC(=O)C1CCC(Cn2c(=O)c3sccc3n(CC(=O)N(CC)CC)c2=O)CC1 (stereo not given),-10.7%
CCOc1ccc(NC(=O)CN2C(=O)c3ccccc3Sc3ccc(C(=O)OC)cc32)cc1,-1.8%
COc1ccc(Cl)cc1NC(=O)c1cc(S(=O)(=O)NC2CCCCCC2)ccc1F,11.2%
Cc1oc(-c2ccccc2Cl)nc1CS(=O)CC(=O)N1CCN(c2cccc(C(F)(F)F)c2)CC1 (stereo not given),?
COc1ccccc1CNC(=O)C(=O)NCC(c1cccs1)S(=O)(=O)c1ccc(F)cc1 (stereo not given),22.3%
O=C(CCSCCc1ccccn1)Nc1ccc(Cl)cc1,0.0%
Cc1ccccc1CSc1nc(-c2ccccc2)nc2c1Cc1c(CO)cnc(C)c1O2,-4.8%
COc1ccccc1Nc1nn2c(=O)c3ccc(C(=O)NC4CCC(C)CC4)cc3nc2s1 (stereo not given),-3.8%
